Compound activity (PubChem BioAssay)
TAR Tat displ: TAR RNA-Tat peptide displacers, HIV-1, primary screen, biochemical, FRET, FAM/TAMRA-labeled Tat. HIV-1 TAR RNA, Tat peptide displacement FRET; active compounds read high. z-score (no concentration beside the values). 0.6% of 100,000 active. AID 1259389, 2018;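 also: score is relative to mean and SD of negative controls; some compounds called inactive have numbers as strong as hits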
CDC25B-CDK2 inh: primary biochemical HTRF screen for blockers of M-phase inducer phosphatase 2 binding to CDK2/cyclin A; P30305+P24941; HTRF CDC25B-CDK2/CyclinA binding, anti-His/anti-Flag; active compounds read high; z-score (concentration not given with the values); 0.72% of 94,000 active;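 also: score is relative to mean and SD of negative controls; strong numbers were not always called active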
* marks the source's active call; other numbers are inactive results; . = no result given.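 The calls were made as follows: active = z-score from 3 up in half or more of its runs; inactive = the rest.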 Compounds as they come; any-hit rate near 0.9%.

mol | TAR Tat displ | CDC25B-CDK2 inh
O=C(C1CCN(c2ccc(-c3cccs3)nn2)CC1)N1CCCN(Cc2ccc(F)cc2)C1 | 0.89 | .
CCNc1sc(S(=O)(=O)CC)nc1S(=O)(=O)c1ccc(Cl)cc1 | 1 | -1.1
Cc1ccc(-n2nc3c(c2NC(=O)c2ccc4c(c2)OCO4)CS(=O)(=O)C3)cc1 | 1.7 | .
O=C(c1ccc(CS(=O)c2ccc(F)cc2)o1)N1CCN(Cc2ccc3c(c2)OCO3)CC1 (configuration not stated) | 2.4 | .
c1ccc(-n2nnnc2C2CCNCC2)cc1 | 2.2 | -1.9
CCOC(=O)c1noc2ncnc(NCc3ccc4c(c3)OCO4)c12 | 0.96 | .
C=CCNC(=O)C(=O)NCc1n[nH]c(=O)c2ccccc12 | 2.2 | .
CCOCCCNC(=O)CN1C(=O)CCn2nc(C)cc21 | 1.7 | .
COc1ccc(COCC(O)CS(=O)(=O)Cc2ccccc2)cc1 (configuration not stated) | . | -2.1
COC(=O)c1cc2ccsc2n1Cc1ccc(Br)cc1F | 1 | 0.5
O=C(Nc1ccc(F)cc1)Nc1nnc(N2CCCCC2)s1 | 0.65 | -1.2
CN(C1CCCCC1)S(=O)(=O)c1ccc2c(c1)NC(=O)CCS2 | -0.86 | .
NNC(=O)c1cc(=S)nc[nH]1 | . | -1.1
CCOC(=O)c1c(C)oc2cc(Br)c(OC(C)C(=O)OCC)cc12 (configuration not stated) | . | 0.06
O=C(CSc1nnnn1-c1ccccc1)Nc1nc(-c2ccccc2)ns1 | 4 | -0.52
O=C(NCCCNC(=O)c1cnccn1)c1cnccn1 | 1.5 | -0.74
Cn1c(C2CC(=O)N(c3cccc(Cl)c3)C2)nc2ccccc21 (configuration not stated) | 1.9 | -0.12
COc1cn(CC(=O)NC(C)(C)C)c(CSc2nc(C)cc(C)n2)cc1=O | 1.3 | .
COc1cccc(C(c2c(N)n(C)c(=O)n(C)c2=O)C(C)[N+](=O)[O-])c1 (configuration not stated) | . | 1.2
CCc1nc2ccc(Oc3ccc4nc(CC)[nH]c4c3)cc2[nH]1 | -0.25 | 0.88
CCOC(=O)N1CCN(C(=O)CNS(=O)(=O)c2ccc3nc(C)sc3c2)CC1 | 1.3 | -1.6
CCc1nnc2c(N3CCc4ccccc4C3)nc3ccccc3n12 | -0.08 | .
Cc1ccc(Sc2cc(C)c(C)cc2N)c(C)c1 | . | -2.4
COC(=O)c1sccc1NC(=O)c1cc2c(CO)cnc(C)c2oc1=O | -0.08 | 0.34
Cc1ccc(OCCN2C(=O)C(=O)c3cc(C)ccc32)cc1 | 0.89 | -0.53
O=S(=O)(Nc1nc(-c2ccc(F)c(F)c2)cs1)c1cccs1 | . | -1.6
COc1ccc2c(c1OC)OC[C@@H](c1ccc(OC)c(OC)c1OC)C2 | -0.18 | .
O=C(CCCc1nc(-c2cccnc2)no1)NC1CCCC1 | 0.62 | -0.73
Cc1cc(Nc2ccccc2C)n2cnnc2n1 | 0.72 | -1.1
O=C(Nc1ccc(F)c(Cl)c1)C1CCCN(c2ncnc3c2nc2n3CCCCC2)C1 (configuration not stated) | 0.41 | .
CN1C(=O)c2ccccc2C(C(=O)NCCCN2CCCC2=O)C1c1cn(C)c2ccccc12 (configuration not stated) | . | -2.1
CCOC(=O)c1c(C)oc2nc(C)nc(NCCN3CCOCC3)c12 | 0.3 | .
FC(F)(F)c1cc(-c2ccccc2)nc(N2CCOCC2)n1 | -4.2 | 4.7
COCCCn1c(=O)c(C#N)cc2c(=O)n3ccccc3nc21 | -0.92 | -0.43
CCN(c1ccccc1)S(=O)(=O)c1ccc(-c2ccc(=O)[nH]n2)o1 | 0.51 | .
CCOC(=O)NC(Nc1cc(C)on1)(C(F)(F)F)C(F)(F)F | . | 0.37
CCOC(=O)c1cnc(NC2CC2)c2ccccc12 | 1.1 | .
CCOC(=O)c1ccc(Oc2nc(C)nc3c2oc2ccccc23)cc1 | 1.2 | .
CCNC(=S)Nc1ccc(NC(=O)c2ccccc2O)cc1 | . | -0.73
CC(C)(C)C(=O)Oc1ccc(-c2csnn2)cc1 | . | 0.1
COc1ccc(NC(=O)CSc2nn3c(=O)c(C)nnc3s2)cc1OC | 1.4 | .
Cc1nc2sc(C(c3cccc(Cl)c3)N3CCC(C)CC3)c(O)n2n1 (configuration not stated) | . | -1.6
O=C1CC(c2cc(F)cc(F)c2)c2c(nc(SCc3ccccc3F)[nH]c2=O)N1 (configuration not stated) | 1.2 | -0.73
O=S(=O)(NCC(c1cccnc1)N1CCc2ccccc21)c1ccc(F)cc1 (configuration not stated) | 1.5 | -2.9
Cn1c(=O)c2c(nc(SCC(=O)Nc3ccccc3)n2C)n(C)c1=O | 0.7 | -0.27

Molecules above that have bromine (2):
mol | TAR Tat displ | CDC25B-CDK2 inh
COC(=O)c1cc2ccsc2n1Cc1ccc(Br)cc1F | 1 | 0.5
CCOC(=O)c1c(C)oc2cc(Br)c(OC(C)C(=O)OCC)cc12 (configuration not stated) | . | 0.06

Later entries.
compound | TAR Tat displ | CDC25B-CDK2 inh
CCOC(=O)C(O)(NC(=O)c1ccncc1)C(F)(F)F (configuration not stated) | . | -0.56
CCOc1cc(C2c3c(n[nH]c3C)C(=O)N2c2ccc(C)cc2)ccc1O (configuration not stated) | 0.02 | .
Cc1oc(C(C)(C)C)cc1C(=O)C(C#N)=C1SCCS1 | . | -1.9
CN(C)CCNc1ncnc2c1sc1nc3c(cc12)COC(C)(C)C3 | 0.24 | 0.89
CC1CC(C)CN(S(=O)(=O)c2ccc3c(c2)CCN3C(=O)CCCC(=O)O)C1 (configuration not stated) | 0.22 | 0.44
CN(C)S(=O)(=O)N(CC(=O)Nc1cccnc1)c1ccccc1 | 0.42 | -0.71
Cc1[nH]nc(-n2cnnc2)c1NS(=O)(=O)c1ccc(F)cc1 | 1.5 | 0.18
CSc1nnc2c(n1)OC(c1ccc(N(C)C)cc1)Nc1ccccc1-2 (configuration not stated) | -0.03 | -2
Cc1cc2nnc(SCC(=O)c3cc(C)n(CC4CCCO4)c3C)n2c2ccccc12 (configuration not stated) | . | 3.8
CCCc1cc(=O)n2nc(N3CCC(C(=O)N4CCN(c5ccccc5)CC4)CC3)sc2n1 | 1.3 | -1.1
COc1ccc(NC(=O)CS(=O)(=O)c2ccc3c(c2)S(=O)(=O)N=CN3)c(OC)c1 | 1.8 | .
O=C(c1ccccc1F)N1CCc2cc3ccccc3nc21 | -0.42 | -0.91
Nc1nnc(SCC(=O)c2ccc(F)cc2)s1 | . | -1.1
O=C(O)CC1SC(c2ccc(Oc3ccc(C(F)(F)F)cn3)cc2)=NC1=O (configuration not stated) | . | -0.77
CCOC(=O)c1c(S(=O)(=O)N2CCc3ccccc32)c(C)n(C)c1C | 0.96 | .
c1ccc2c(c1)nc(NCCCN1CCOCC1)c1nnnn12 | -2.8 | 0.19
O=C1CC(NC2CCN(S(=O)(=O)c3ccc(Cl)cc3)CC2)C(=O)N1c1ccc(F)cc1 (configuration not stated) | 0.76 | 0.59
CCOC(=O)C1=C(C)Nc2ncnn2C1c1ccc(OC)cc1 (configuration not stated) | 1.9 | .
Fc1ccc2c(c1)c1nnc(-c3ccc4c(c3)OCO4)c-1cn2Cc1ccccc1 | -0.38 | -1.3
COc1ccc(Nc2nc(-c3cccc(OC)c3OC)no2)c(OC)c1 | 0.71 | .
Clc1cccc(-n2ncc3c(N4CCOCC4)ncnc32)c1 | -2.7 | .
CCOc1ccc(C2C=C(c3ccc(C)cc3)Nc3nc(CCCO)nn32)cc1 (configuration not stated) | . | 0.2
CCCC(=O)OC1=C(C(=O)c2ccccc2)N(CC(=O)OCC)S(=O)(=O)c2ccccc21 | -0.18 | -1.1
CCOC(=O)c1[nH]n(-c2ccc(F)cc2)c(=O)c1C | 1.1 | -2.6

A different layout for 3 compounds above:
> CCCC(=O)OC1=C(C(=O)c2ccccc2)N(CC(=O)OCC)S(=O)(=O)c2ccccc21
  TAR Tat displ: -0.18 | CDC25B-CDK2 inh: -1.1

> COc1ccc(Nc2nc(-c3cccc(OC)c3OC)no2)c(OC)c1
  TAR Tat displ: 0.71 | CDC25B-CDK2 inh: .

> CCOc1ccc(C2C=C(c3ccc(C)cc3)Nc3nc(CCCO)nn32)cc1 (configuration not stated)
  TAR Tat displ: . | CDC25B-CDK2 inh: 0.2

The list continues.
compound | TAR Tat displ | CDC25B-CDK2 inh
CCN1CCN(C(=O)Cn2ncc3c([nH]c4ccccc43)c2=O)CC1 | 1.1 | .
COc1cccc(-n2nnc(S(=O)(=O)c3ccc(Cl)cc3)c2C)c1 | 2.7 | -0.96
CCc1ccc2occ(CC(=O)N(Cc3ccccc3)C3CCS(=O)(=O)C3)c2c1 (configuration not stated) | 0.77 | -3.2
Cc1ccccc1CSc1nc2c(cnn2-c2ccc(F)cc2)c(=O)[nH]1 | . | -0.4
O=S1(=O)C[C@H](NCc2ccccc2)[C@@H](S(=O)(=O)c2cccs2)C1 | -1.2 | -2.6
O=C1C(=O)N(Cc2ccc(Br)cc2)c2ccccc21 | 1.2 | .
O=C(CCCn1sc2ccccc2c1=O)NCc1cccnc1 | 1.7 | -1.4
Cc1c(-c2nc(-c3ccccc3)no2)sc2nc[nH]c(=O)c12 | 1 | -3
O=C1NCC(COc2cccc3ccccc23)O1 (configuration not stated) | 1.2 | 0.92
CC(=O)NC(O)C(=O)c1cccs1 (configuration not stated) | 1.7 | 0.9
Cc1cccc(CSc2nc(=O)c3c(n2C)NC(=O)CC3c2cccc(O)c2)c1 (configuration not stated) | 0.27 | 0.12
COc1cc2c(cc1OC)C(c1ccc3c(c1)OCO3)C1=C(CC(C)(C)CC1=O)N2 (configuration not stated) | 1.7 | 0.97
CSc1cccc(NC(=O)C2CCN(S(=O)(=O)c3ccc4c(c3)oc(=O)n4C)CC2)c1 | 1.3 | -1
C[C@H]1[C@@H](OC(=O)CCC(=O)O)O[C@@H]2OC3(C)CC[C@H]4[C@H](C)CC[C@@H]1[C@@]24OO3 | -0.03 | .
O=C(NNC(=O)c1cccnc1Oc1ccccc1)c1cccnc1Oc1ccccc1 | . | -0.1
Cc1ccc(S(=O)(=O)NCCN2CCN(S(=O)(=O)c3ccc(C)c(C)c3C)CC2)c(C)c1C | 2.3 | -2.4
O=C(NC1CCCCC1)N1CCC2(CC1)Nc1ccccc1-n1cccc12 | 0.22 | .
CCC(Sc1nc2ccccc2o1)C(N)=O (configuration not stated) | 0.21 | -1.4
NC(=O)c1cccnc1Oc1ccc(Cl)cc1 | . | -1.4
CCCCN(C)C(=O)Cn1nc(C)c2nn(-c3ccc(Cl)cc3)c(-n3cccc3)c2c1=O | 0.49 | .
O=C(NCc1n[nH]c(=O)c2ccccc12)C(=O)NC1CCCCC1 | 2.6 | .
COc1ccc(C(C)=O)cc1CSC1=NCN(C)CN1 | . | 0.92
O=C(CSc1ncn[nH]1)Nc1ncc(Br)s1 | 1.5 | 1.6
CCn1cc(S(=O)(=O)c2ccccc2)c(=O)c2cc(F)c(F)cc21 | 0.53 | 0.92

Single records, as listed above:
Record of `O=C(NCc1n[nH]c(=O)c2ccccc12)C(=O)NC1CCCCC1` = TAR Tat displ: 2.6; CDC25B-CDK2 inh: .
Record of `O=C(NC1CCCCC1)N1CCC2(CC1)Nc1ccccc1-n1cccc12` = TAR Tat displ: 0.22; CDC25B-CDK2 inh: .

(continued)
compound | TAR Tat displ | CDC25B-CDK2 inh
COc1ccc(-c2nc3n(n2)C(=O)CC(c2cccs2)S3)cc1 (configuration not stated) | 2.3 | 0
CCOc1cc(/C=c2/sc3nc4cc(C)c(C)cc4n3c2=O)ccc1OCc1ccccc1F | . | -2.2
COc1cc(NS(=O)(=O)c2ccc3c(c2)NC(=O)CO3)cc(OC)c1 | 1.4 | .
Cc1cccc(Nc2ncnc3c2cnn3Cc2ccccc2)c1 | . | -2.6
O=C(COc1ccccc1)Nc1nc(-c2ccc(S(=O)(=O)N3CCOCC3)cc2)cs1 | . | -28
O=C(NNC(=S)NC(=O)c1ccccc1Cl)c1cccc([N+](=O)[O-])c1 | . | -1.7
CSc1ccc(/C=C/c2nc3n(n2)C=COc2ccccc2-3)cc1 | 0.94 | 0.99
O=S(=O)(N1CCOCC1)N1CCCN(S(=O)(=O)N2CCOCC2)CC1 | 0.29 | -0.99
NC(=O)c1c(NC(=O)COCc2cc(-c3ccc4c(c3)OCO4)on2)sc2c1CCCC2 | -1.7 | .
CC(=O)N=Nc1c(O)[nH]c2ccc(F)cc12 | . | -2.4
O=C(O)c1cc(=O)c2cccc(O)c2[nH]1 | 5.3* | .
CCn1ccc2cc(S(=O)(=O)N3CCCC(C(=O)NCc4ccc(C)o4)C3)ccc21 (configuration not stated) | 0.39 | .
Cc1ccc(-c2nnc(N3CCCCC3)c3ccccc23)cc1S(=O)(=O)NCC1CCCO1 (configuration not stated) | . | -1.7
O=C(c1cnn(-c2ccccc2)c1-n1cccc1)N1CCC(C(=O)N2CCc3ccccc32)CC1 | 0.53 | -0.83
Cc1cc(NS(=O)(=O)c2ccc(NC(=O)c3cnc4sccn4c3=O)cc2)nc(C)n1 | . | -2.5
CC(C)c1ccc(C2/C(=C(\O)c3ccccc3)C(=O)C(=O)N2CCCN2CCOCC2)cc1 (configuration not stated) | 0.37 | -2.4
COc1ccc(N(C(=O)c2cccs2)S(=O)(=O)c2ccc3c(c2)oc(=O)n3C)cc1 | 2 | -1.5
CC(=O)c1c(-c2ccccc2)c2cc(Cl)ccc2[nH]c1=O | . | -0.66
Cc1nn2c(C(F)(F)F)cc(-c3ccco3)nc2c1-c1ccc(Cl)cc1 | -2.3 | -1.2
O=C(COc1ccc(F)cc1)OCc1cc(=O)n2nc(C3CCCCC3)sc2n1 | 1.7 | .
